# Screening data: PubChem BioAssay, Broad Institute
# c-Myc SMM = binds human c-Myc on microarray | calls only | P01106 | AID 624141 | small molecule microarray, His-c-Myc binding, anti-His fluorescence | actives 1.5% (n = 17,000);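 active = spot fluorescence over background with P-value below 7% in all four replicate spots, showing protein binding; compounds were printed on slides so no solution concentration is given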;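 also: score is binary with 100 for all four spots passing and 0 otherwise; about 2 pmol printed per array spot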
# STAT3 binder = binders of human STAT3 | P40763 | Small molecule microarray, His-STAT3 binding, anti-His fluorescence | calls only | actives 0.2% (n = 17,000) | AID 624138;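 active = compounds whose four printed spots each show fluorescence over background unusually high for their array block, chance value under 7%; compounds were printed on slides so no solution concentration is given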;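 also: about 2 pmol printed per array spot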
# Target sequence (P40763 whole entry, looked up): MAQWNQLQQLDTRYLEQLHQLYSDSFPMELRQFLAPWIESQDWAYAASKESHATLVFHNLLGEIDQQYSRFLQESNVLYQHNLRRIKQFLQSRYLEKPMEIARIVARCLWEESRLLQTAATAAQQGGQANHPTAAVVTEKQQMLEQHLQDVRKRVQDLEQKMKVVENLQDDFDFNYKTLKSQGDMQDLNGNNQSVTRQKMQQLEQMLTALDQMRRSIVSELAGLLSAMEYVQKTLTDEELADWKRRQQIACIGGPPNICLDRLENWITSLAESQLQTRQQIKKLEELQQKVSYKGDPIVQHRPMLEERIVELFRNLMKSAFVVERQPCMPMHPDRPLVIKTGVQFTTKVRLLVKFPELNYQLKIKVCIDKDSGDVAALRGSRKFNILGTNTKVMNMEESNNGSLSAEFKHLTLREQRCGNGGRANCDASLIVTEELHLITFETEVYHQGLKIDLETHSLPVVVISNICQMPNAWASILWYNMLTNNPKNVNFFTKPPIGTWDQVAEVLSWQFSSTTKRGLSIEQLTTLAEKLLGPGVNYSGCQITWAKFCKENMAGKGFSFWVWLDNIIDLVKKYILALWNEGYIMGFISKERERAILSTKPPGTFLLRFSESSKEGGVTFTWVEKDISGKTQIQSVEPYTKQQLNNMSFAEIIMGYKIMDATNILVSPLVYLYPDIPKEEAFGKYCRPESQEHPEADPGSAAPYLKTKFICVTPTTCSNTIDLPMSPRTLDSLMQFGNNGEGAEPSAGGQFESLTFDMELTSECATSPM
# p53 mut binder = binds human mutant p53 on microarray; small molecule microarray binding, anti-GST fluorescence; calls only; actives 0.4% (n = 17,000); AID 624136;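 active = compounds whose four printed spots each glow above background more than chance allows, each with a p-value under 7%; compounds were printed on slides so no solution concentration is given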;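 also: about 2 pmol printed per array spot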
# ID4 binder = binds human ID4 protein on microarray. P47928. small molecule microarray, Flag-ID4 binding, fluorescence F/B. calls only. actives 1.2% (n = 31,000). AID 624137;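 active = spot signal over background at p below 0.07 in all four prints; compounds were printed on slides so no solution concentration is given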;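 also: a binder raises fluorescence above local background on the spot; about 2 pmol printed per array spot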
# Target sequence (P47928 whole entry, looked up): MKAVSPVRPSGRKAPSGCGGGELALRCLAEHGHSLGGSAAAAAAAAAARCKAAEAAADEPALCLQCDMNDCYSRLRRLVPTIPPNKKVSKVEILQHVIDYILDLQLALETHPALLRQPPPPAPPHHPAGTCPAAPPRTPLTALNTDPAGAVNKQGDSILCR
# Calls only; i = inactive; · = not tested or not shown; + = active, no number. A portion of the library; the hit share may differ from the screen's.
SMILES,c-Myc SMM,STAT3 binder,p53 mut binder,ID4 binder
C[C@@H]1CCCCO[C@H](CN(C)Cc2ccncc2)[C@@H](C)CN([C@H](C)CO)C(=O)c2cc(NS(=O)(=O)c3ccccc3)ccc2O1,i,i,i,i
O=C(OC[C@@]1(O)[C@H]2[C@H](O[C@@H]3O[C@H](CO)[C@@H](O)[C@H](O)[C@H]3O)OC=C[C@H]2[C@H](O)[C@H]1Cl)c1ccccc1,i,i,i,·
Nc1[nH]nc2nc3ccccc3nc12,i,i,i,·
CCCN(C)C[C@H]1OCCCC[C@@H](C)Oc2ccc(NC(=O)NC3CCCCC3)cc2C(=O)N([C@@H](C)CO)C[C@H]1C,i,i,i,·
CCCNc1ncnc2ccccc12,i,i,i,·
O=C1c2ccccc2[C@](Cc2ccccc2I)(C(=O)NCc2ccccc2)[C@H](c2ccc(CO)cc2)N1C1CCCCC1,i,i,i,i
C[C@H](CO)N1C[C@H](C)[C@@H](CN(C)C(=O)Nc2ccccc2)Oc2ccc(NC(=O)Nc3ccccc3)cc2CC1=O,i,i,i,i
COC(=O)CCCCCCC(=O)Nc1ccc(C2OC(CN(C)Cc3ccccc3)CC(c3ccccc3)O2)cc1 (stereo not drawn),i,i,i,i
C[C@@H]1CN([C@@H](C)CO)C(=O)CCCn2cc(nn2)CO[C@@H]1CN(C)Cc1ccc(C(F)(F)F)cc1,i,i,i,i
C[C@H]1CCCCO[C@@H](CN(C)Cc2ccc3c(c2)OCO3)[C@@H](C)CN([C@@H](C)CO)C(=O)c2cc(NC(=O)Nc3cccc4ccccc34)ccc2O1,i,i,i,·
Cc1noc(C)c1S(=O)(=O)Nc1ccc2c(c1)CC(=O)N([C@H](C)CO)C[C@@H](C)[C@@H](CN(C)C(=O)Nc1ccc(F)cc1)O2,i,i,i,i
Cc1noc(C)c1NC(=O)N(C)C[C@H]1OCCCC[C@@H](C)Oc2ccc(NC(=O)CCC(F)(F)F)cc2C(=O)N([C@H](C)CO)C[C@H]1C,i,i,i,i
C[C@H]1CN([C@@H](C)CO)C(=O)Cc2cc(NC(=O)C3CC3)ccc2O[C@@H]1CN(C)C(=O)Nc1ccc(F)cc1,i,i,i,i
Cc1noc(C)c1NC(=O)N(C)C[C@H]1Oc2c(NS(=O)(=O)c3ccccc3)cccc2C(=O)N([C@H](C)CO)C[C@@H]1C,i,i,i,i
C[C@@H]1CCCCO[C@@H](CN(C)S(=O)(=O)c2ccccc2)[C@H](C)CN([C@H](C)CO)C(=O)c2cc(NS(=O)(=O)c3cccs3)ccc2O1,i,i,i,·
C[C@@H]1CCCCO[C@H](CN(C)C(=O)Nc2ccc3c(c2)OCO3)[C@@H](C)CN([C@H](C)CO)C(=O)c2cc(NS(C)(=O)=O)ccc2O1,i,i,i,i
CC(C)NC(=O)Nc1ccc2c(c1)C(=O)N([C@@H](C)CO)C[C@H](C)[C@@H](CN(C)C)OCCCC[C@H](C)O2,i,i,i,i
CCOC(=O)c1sc(NC(=S)N2CCN(c3ncccn3)CC2)c(C(=O)OCC)c1C,i,i,i,i
C[C@@H]1CCCCO[C@@H](CN(C)S(=O)(=O)c2ccccc2)[C@@H](C)CN([C@@H](C)CO)C(=O)c2cc(NC(=O)c3ccncc3)ccc2O1,i,i,i,i
C[C@H](CO)N1C[C@H](C)[C@@H](CN(C)C(=O)c2ccccc2)OCCCC[C@H](C)Oc2ccc(NS(=O)(=O)c3cn(C)cn3)cc2C1=O,i,i,i,i
COc1ccc(NC(=O)Nc2ccc3c(c2)CC(=O)N([C@@H](C)CO)C[C@@H](C)[C@H](CN(C)C)O3)cc1,i,i,i,i
C[C@H]1CCCCO[C@@H](CN(C)C(=O)Nc2ccc(C(F)(F)F)cc2)[C@@H](C)CN([C@@H](C)CO)C(=O)c2cc(NS(=O)(=O)c3cccs3)ccc2O1,i,i,i,·
COc1ccc(CN(C)C[C@H]2OCCCC[C@@H](C)Oc3ccc(NC(=O)Nc4c(C)noc4C)cc3C(=O)N([C@@H](C)CO)C[C@@H]2C)cc1,i,i,i,i
CC1(O)CC(=O)c2c(ccc3c2C(=O)c2cccc(O)c2C3=O)C1 (stereo not drawn),i,i,i,i
C[C@H](CO)N1C[C@H](C)[C@@H](CN(C)Cc2ccc(C(F)(F)F)cc2)Oc2ccc(NC(=O)Cc3cn(C)c4ccccc34)cc2CC1=O,+,i,i,·
Cc1ccc(S(=O)(=O)N(C)C[C@@H]2Oc3ncc(-c4ccccc4)cc3C(=O)N([C@H](C)CO)C[C@@H]2C)cc1,i,i,i,·
C[C@@H]1CN([C@H](C)CO)C(=O)c2cc(NC(=O)Nc3cccc4ccccc34)ccc2O[C@@H]1CN(C)C,i,i,i,i
COC(=O)c1ccccc1NC(=O)c1ccc(NC(=O)COc2ccccc2)cc1,i,i,i,i
O=C(C1=C[C@@H](c2ccc3c(c2)OCO3)C[C@@H](OCc2ccc(CO)cc2)O1)N1CCN(Cc2ccc3c(c2)OCO3)CC1,i,i,i,i
CCC(SC1=NCCS1)C(=O)Nc1ccc(NC(C)=O)cc1 (stereo not drawn),i,i,i,i
CCOC(=O)CC1C(=O)NCCN1C(=O)c1sc2ccccc2c1Cl (stereo not drawn),i,i,i,i
COc1ccc(S(=O)(=O)N(C)CC(=O)N2CCOCC2)cc1OC,i,i,i,i
C=C[C@@]1(C)CCC2=C(C1)C(=O)CC1[C@](C)(C(=O)O)CCC[C@]21C (stereo partly drawn),i,i,i,i
CC(C)C(C(=O)O)N1C(=O)/C(=C/c2ccc(Br)cc2)SC1=S (stereo not drawn),i,i,i,i
C[C@@H]1CCCCO[C@@H](CN(C)C(=O)CCCN(C)C)[C@H](C)CN([C@@H](C)CO)C(=O)c2cc(NS(=O)(=O)c3ccccc3)ccc2O1,i,i,i,i
C[C@@H]1CCCCO[C@@H](CN(C)Cc2ccccc2)[C@@H](C)CN([C@@H](C)CO)C(=O)c2cc(NS(=O)(=O)c3cccs3)ccc2O1,i,i,i,i
Cc1noc(C)c1S(=O)(=O)N(C)C[C@H]1OCCCC[C@H](C)Oc2ccc(NC(=O)Cc3ccccc3)cc2C(=O)N([C@@H](C)CO)C[C@@H]1C,i,i,i,·
COC(=O)Nc1nc2ccc(SC(C)C)cc2[nH]1,i,i,i,i
C[C@H](CO)N1C[C@H](C)[C@@H](CN(C)Cc2ccncc2)Oc2c(NS(C)(=O)=O)cccc2C1=O,i,i,i,i
CNC[C@@H]1Oc2c(NC(=O)c3cnccn3)cccc2C(=O)N([C@H](C)CO)C[C@H]1C,i,i,i,i

# Complete entries, looked up by structure:
# Listed for COC(=O)Nc1nc2ccc(SC(C)C)cc2[nH]1 : c-Myc SMM = i; STAT3 binder = i; p53 mut binder = i; ID4 binder = i
# Listed for CNC[C@@H]1Oc2c(NC(=O)c3cnccn3)cccc2C(=O)N([C@H](C)CO)C[C@H]1C : c-Myc SMM = i; STAT3 binder = i; p53 mut binder = i; ID4 binder = i

# (next part)
SMILES,c-Myc SMM,STAT3 binder,p53 mut binder,ID4 binder
C[C@H]1CN([C@@H](C)CO)C(=O)c2cccc(NC(=O)Nc3cccc4ccccc34)c2O[C@H]1CN(C)Cc1ccc(C(=O)O)cc1,i,i,i,i
CC(O)CCCc1cc(O)cc(O[C@@H]2O[C@H](CO)[C@@H](O)[C@H](O)[C@H]2O)c1 (stereo partly drawn),i,i,i,i
C[C@H]1CN([C@@H](C)CO)C(=O)Cc2cc(NC(=O)Cc3cn(C)c4ccccc34)ccc2O[C@@H]1CN(C)C(=O)Nc1ccccc1,i,i,i,i
Cc1noc(C)c1NC(=O)N(C)C[C@@H]1Oc2c(NC(=O)NC3CCCCC3)cccc2C(=O)N([C@H](C)CO)C[C@@H]1C,i,i,i,i
CC(C)(C)c1ccc(-c2nnc(SCC(=O)Nc3ccccc3)n2-c2ccccc2)cc1,i,i,i,i
CS(=O)(=O)N1CCN(c2ccccc2NC(=O)c2ccco2)CC1,i,i,i,i
C[C@H]1CN([C@@H](C)CO)C(=O)CCCn2cc(nn2)CO[C@@H]1CN(C)C(=O)c1ccc2ccn(C)c2c1,i,i,i,i
C[C@@H]1O[C@@H](O[C@H]2[C@H](OC(=O)[C@]34CCC(C)(C)C[C@H]3C3=CCC5[C@@]6(C)C[C@H](O)[C@H](O[C@@H]7O[C@H](C(=O)O)[C@@H](O)[C@H](O)[C@H]7O)[C@@](C)(CO)C6[C@H](O)C[C@@]5(C)[C@]3(C)C[C@H]4O)O[C@@H](CO)[C@@H]2O)[C@H](O)[C@H](O)[C@H]1O[C@@H]1OC[C@@H](O)[C@H](O[C@H]2OC[C@](O)(CO)[C@H]2O)[C@H]1O (stereo partly drawn),i,i,i,i
Cc1noc(C)c1NC(=O)N(C)C[C@@H]1Oc2ccc(NC(=O)Nc3ccc4c(c3)OCO4)cc2CC(=O)N([C@@H](C)CO)C[C@H]1C,i,i,i,i
COc1cc(C)c(C(=O)Oc2cc(C)c(C(=O)Oc3cc(C)c(C(=O)NC(C)C(=O)O)c(O)c3)c(O[C@@H]3O[C@H](CO)[C@@H](O)[C@H](O)[C@H]3OC(C)=O)c2)c(OC)c1 (stereo partly drawn),i,i,i,i
COc1ccc(-c2coc3cc(O[C@@H]4O[C@H](CO)[C@@H](O)[C@H](O)[C@H]4O)cc(O)c3c2=O)cc1,i,i,i,i
CNC[C@@H]1Oc2ccc(NC(=O)Nc3c(C)noc3C)cc2CC(=O)N([C@H](C)CO)C[C@H]1C,i,i,i,+
COc1ccc(CN(C)C[C@H]2Oc3c(NS(=O)(=O)c4c(C)noc4C)cccc3C(=O)N([C@H](C)CO)C[C@H]2C)cc1,i,i,i,i
CCCCC/C=C\C/C=C\C/C=C\C/C=C\CCCCCC(=O)O,i,i,i,i
COc1ccc(S(=O)(=O)Nc2cccc3c2O[C@H](CN(C)C(=O)Nc2ccc4c(c2)OCO4)[C@H](C)CN([C@@H](C)CO)C3=O)cc1,i,i,i,·
C[C@H]1CN([C@@H](C)CO)C(=O)c2cc(NC(=O)Cc3cn(C)c4ccccc34)ccc2O[C@H]1CN(C)C(=O)NC1CCCCC1,i,i,i,i
Oc1ccc(-c2c(-c3ccccc3)nn3c(C(F)(F)F)cc(C(F)(F)F)nc23)cc1,i,i,i,i
COc1ccccc1Cn1c(NCC(C)O)nc2c1c(=O)n(C)c(=O)n2C (stereo not drawn),i,i,i,i
C[C@H]1CN([C@@H](C)CO)C(=O)CCCn2cc(nn2)CO[C@H]1CN(C)C(=O)c1cc(-c2ccccc2)on1,i,i,i,i
COc1ccc(CN(C)C[C@H]2Oc3ccc(NS(=O)(=O)c4ccc(Cl)cc4)cc3CC(=O)N([C@H](C)CO)C[C@H]2C)cc1,i,i,i,i
CCCC(O)c1ccc(C)cc1CCCCCC(=O)O (stereo not drawn),i,i,i,i
C[C@@H]1CN([C@H](C)CO)C(=O)c2cc(NC(=O)Cc3cn(C)c4ccccc34)ccc2O[C@@H]1CN(C)C(=O)NC1CCCCC1,i,i,i,i
Cc1ccccc1N1C(=O)CC(SCC(=O)Nc2ccccc2)C1=O (stereo not drawn),i,i,i,i
C=C[C@H](OC)[C@@H](OC(=O)Nc1ccc(SC)cc1)c1ccc(OCCO)cc1,i,i,i,·
Cc1noc(C)c1S(=O)(=O)Nc1ccc2c(c1)C(=O)N([C@H](C)CO)C[C@@H](C)[C@H](CN(C)C(=O)NC1CCCCC1)O2,i,i,i,i
CN(C)CCC(c1ccc(Cl)cc1)c1ccccn1 (stereo not drawn),i,i,i,i
Cc1noc(C)c1S(=O)(=O)Nc1ccc2c(c1)CC(=O)N([C@H](C)CO)C[C@@H](C)[C@H](CN(C)C(=O)NC(C)C)O2,i,i,i,i
C[C@H](CO)N1C[C@H](C)[C@H](CN(C)C(=O)Nc2cccc3ccccc23)OCCCC[C@H](C)Oc2ccc(NS(=O)(=O)c3cn(C)cn3)cc2C1=O,i,i,i,·
C[C@@H]1CN([C@@H](C)CO)C(=O)c2cccc(NC(=O)NC3CCCCC3)c2O[C@H]1CN(C)C(=O)Nc1ccc2c(c1)OCO2,i,i,i,i
Cc1nnc(SCC(=O)Nc2cc(C(F)(F)F)ccc2N2CCOCC2)o1,i,i,i,i
O=C1O[C@@H](c2ccccc2)[C@@H](c2ccccc2)N2[C@@H](c3ccc(O)cc3)[C@]3(C(=O)Nc4ccccc43)[C@@H](C(=O)O)[C@H]12,i,i,i,i
O=c1c2cn[nH]c2nc(SCc2ccc3c(c2)OCCO3)n1-c1ccccc1,i,i,i,i
COc1ccc(CN(C)C[C@H]2Oc3c(NS(=O)(=O)c4ccc(OC)cc4)cccc3C(=O)N([C@@H](C)CO)C[C@@H]2C)cc1,i,i,i,i

# Rewritten as tab-separated lines: 3 of the compounds above
SMILES	c-Myc SMM	STAT3 binder	p53 mut binder	ID4 binder
C[C@H](CO)N1C[C@H](C)[C@H](CN(C)C(=O)Nc2cccc3ccccc23)OCCCC[C@H](C)Oc2ccc(NS(=O)(=O)c3cn(C)cn3)cc2C1=O	i	i	i	·
CN(C)CCC(c1ccc(Cl)cc1)c1ccccn1 (stereo not drawn)	i	i	i	i
COc1ccc(CN(C)C[C@H]2Oc3c(NS(=O)(=O)c4ccc(OC)cc4)cccc3C(=O)N([C@@H](C)CO)C[C@@H]2C)cc1	i	i	i	i
